Sfp inh – Sfp phosphopantetheinyl transferase inhibition. Q9F4F7. 3.5% of 310,000 active. Biochemical Sfp PPTase activity, qHTS. Potency, µM, inactives show max response, negative = inhibition, actives largely listed as inhibitors; active means well fitted inhibition curve with a large enough effect; inconclusive means small, poorly fitted or top-dose-only effect, or another doubt; inactive means no such curve, though single readings can be large or run the other way;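 further: the enzyme is Sfp with the accession as filed and its product quenches rhodamine fluorescence; potency means the concentration at half of the fitted maximal effect; 0% = enzyme reaction without inhibitor and -100% = no enzyme wells; top concentration of the series not given in the record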
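After 15 min at room temperature with compound, 15 nM Sfp received 5 uM rhodamine-CoA plus 12.5 uM BHQ-2-ybbR (50 mM Hepes pH 7.6, 10 mM MgCl2). Rate came from the fluorescence difference over 30 min, ex 525/em 598 nm.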
TRPV1 PAM – potentiators of human vanilloid receptor 1 (TRPV1). Q8NER1. TRPV1-expressing cells, Fluo-8 calcium influx, capsaicin EC20 potentiation; host cell line not named in the record; control for the full effect not named in the record. potentiation, % at 8.33 µM. 0.02% of 320,000 active. AID 540277; active means potentiation above 80%; inconclusive means 30% to 80%; inactive means below 30%; further: 0% is about no effect
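Cells expressing TRPV1 were dye-loaded with Fluo-8 and read kinetically: 10 s baseline, 3 min after compound (agonist portion), then 2 min after EC20 capsaicin (allosteric enhancer portion). Calcium-bound dye fluorescence at 480/520 nm.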
gsp agonist – agonists of gsp mutant (McCune-Albright syndrome); gsp mutant cells, cAMP HTRF, 30 min; control for the full effect not named in the record; Potency, µM (top dose mostly 76.9 µM), inactives show top-dose activation (cAMP increase), actives largely listed as activators; 0.13% of 340,000 active; AID 624287; active = well fitted activation curve with a large enough effect; inconclusive = small, poorly fitted or top-dose-only effect, or another doubt; inactive = no such curve, though single readings can be large or run the other way; cell line not stated here;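 further: phosphodiesterase inhibitor Ro 20-1724 added with compounds to block cAMP breakdown; potency means the concentration at half of the fitted maximal effect; nearly all actives have a fitted effect of over 60% in size; about a fifth of the inactives were tested at one dose only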
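Cells stably selected in G418 were plated at 2000/well, grown 16-24 hr, then given compounds in DMSO with the PDE inhibitor […] (300 uM solution added) for 30 min at 37C; cAMP was read by HTRF.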
ClpP mod – qHTS Assay for Activators of ClpP | Potency, µM (top dose mostly 57.5 µM), for the others: at the highest dose activity change, negative = active | ATP-dependent Clp protease proteolytic subunit (Bacillus subtilis (strain 168)), P80244 | 1.9% of 340,000 active | purified B. subtilis ClpP, FRET peptide cleavage, 20 min; active = well fitted falling curve with a large enough effect; inconclusive = small, poorly fitted or top-dose-only effect; inactive = no such curve, though single readings can be large or run the other way; further: potency means the concentration at half of the fitted maximal effect; the source files actives as falling curves though it sought activators and does not explain the sign; nearly all actives have a fitted effect of over 65% in size; many hits overshoot -100%
Target sequence (P80244 whole entry, looked up): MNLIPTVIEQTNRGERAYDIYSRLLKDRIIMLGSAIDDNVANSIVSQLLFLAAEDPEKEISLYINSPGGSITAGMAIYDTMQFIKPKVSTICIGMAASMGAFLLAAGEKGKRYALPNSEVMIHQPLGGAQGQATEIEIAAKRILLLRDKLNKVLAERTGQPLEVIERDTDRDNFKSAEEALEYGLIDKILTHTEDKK
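ClpP 10 microg/mL final, pH 8 Tris/KCl buffer with BSA, glycerol, Tween-20; compound pinned in; FRET-FV substrate; RT 20 min; Ex320/Em430; ΔFRET vs ADEP 5.8 microM, DMSO, no enzyme.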
Menin-MLL FL inh – displaces fluorescein MLL peptide from human menin | AID 1766 | FP activity change, % at 61.4 µM | 290,000 tested, under 10 active | Fluorescence polarization, fluorescein-MLL peptide displacement from menin; inconclusive = falling polarisation curve, or a change in total fluorescence; inactive = total fluorescence flat and polarisation flat or rising; no compound was filed as active; the % refers to the polarisation; negative = inhibition;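 further: % of control where 0% means no effect; inhibitors lower the polarisation; unlabelled MLL peptide was the positive control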
gsp antagonist – gsp mutant antagonism. 0.4% of 340,000 active. Potency, µM (doses to about 76.9 µM), without a hit: at the highest dose activity change, negative = inhibition, actives largely listed as inhibitors. gsp-mutant cells, cAMP HTRF, 30 min; control for the full effect not named in the record; active = falling curve of any shape with a large fitted effect; inconclusive = falling curve, mostly with a smaller effect; inactive = flat or rising curve; cell line not stated here;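 further: intracellular cAMP measured with PDE inhibitor Ro 20-1724 present during compound exposure; potency means the concentration at half of the fitted maximal effect; on the % scale 0 is the no-effect control and ±100 the full control effect; nearly all actives have a fitted effect of over 65% in size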
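HTRF cAMP read-out (cAMP-d2 plus anti-cAMP antibody-K in lysis buffer, 30 min RT). Before lysis, cells are exposed to compounds with […] for 30 min at 37C in DPBS containing Ca/Mg, BSA and Tween 20.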
D2 PAM – positive allosteric modulators of human D2 dopamine receptor. P14416. DiscoveRx D2 beta-arrestin cells, luminescence, 90 min; 100% = 57 uM dopamine signal. potentiation, % (concentration not given with the values). 0.23% of 360,000 active. AID 624464; active = potentiation of 50% or more; inconclusive = 30% to 50%; inactive = 30% or less;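 further: compound concentration not given in the record; tested on top of an EC20 dose of dopamine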
Target sequence (P14416 whole entry, looked up): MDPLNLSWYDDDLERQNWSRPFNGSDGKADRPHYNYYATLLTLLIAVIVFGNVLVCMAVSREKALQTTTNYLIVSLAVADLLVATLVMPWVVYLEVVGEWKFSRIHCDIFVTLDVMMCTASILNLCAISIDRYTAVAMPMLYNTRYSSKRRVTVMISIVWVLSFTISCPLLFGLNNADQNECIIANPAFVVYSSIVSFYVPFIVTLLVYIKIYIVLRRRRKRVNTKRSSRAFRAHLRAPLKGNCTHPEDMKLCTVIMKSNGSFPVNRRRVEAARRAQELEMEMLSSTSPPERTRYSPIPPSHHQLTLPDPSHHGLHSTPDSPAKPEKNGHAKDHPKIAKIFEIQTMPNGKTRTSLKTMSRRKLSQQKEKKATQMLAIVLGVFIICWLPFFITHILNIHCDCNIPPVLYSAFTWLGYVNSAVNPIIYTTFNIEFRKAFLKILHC
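D2 cells co-treated with compound plus 50 nM dopamine (EC20) for 90 min at 37 deg C to detect potentiation. Beta-arrestin recruitment was read as enzyme-fragment luminescence after 1 h at ambient temperature. Full response was set by 57 uM dopamine.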
* hit, by the source's call; ? = inconclusive; . = not tested or not shown; & = joins results of further samples; [ ] = dose if it differs, or a comment.

SMILES	Sfp inh	TRPV1 PAM	gsp agonist	ClpP mod	Menin-MLL FL inh	gsp antagonist	D2 PAM
CCOC(=O)C1(Cc2cccc(F)c2)CCN(Cc2nc(CC)[nH]c2C)CC1	2%	0	10%[15.4 µM]	.	?	3%	0
COc1cc2c(c(OC)c1OC)C(c1ccc(C)cc1)CC(=O)O2 (stereo unspecified)	-11%	.	.	0.9%	2.0[94.6 µM]	3%	7
O=C(NC1CCCCC1)c1ccc(-c2ccccc2F)o1	.	.	-32%[inhibitor]	-26%	.	-7%	-13
COC(=O)C1(c2ccccc2)NC(c2cccs2)C2C(=O)N(C)C(=O)C21 (stereo unspecified)	4%	6	-5%	0.0%	-1.8	-19%	12
CCOc1ccc(Br)cc1/C=N/NC(=O)c1ccncc1	19%	-8	-19%	-0.9%	4.5	-6%	-10
CCN1CCN(C(=S)Nc2sc(C)c(-c3ccccc3)c2C(=O)OC)CC1	?	-4	-1%[15.4 µM]	-6.1%	.	-10%	-29
O=C(CCCN1C(=O)/C(=C/c2ccccc2)SC1=S)Nc1cccc(O)c1	0%	-6	-45%[inhibitor]	0.2%	1.6	?	-9
Nc1nc(CSc2nc3ccccc3s2)nc(N2CCOCC2)n1	26%	1	14%	.	-4.5	11%	-1
CCN1C(=O)C2(C(C#N)=C(N)Oc3n[nH]c(C(C)C)c32)c2ccccc21 (stereo unspecified)	1%	12	2%	-0.1%	4.8	-13%	9
CCOC(=O)CSC1=NC(=O)CS1	79µM*	-10	26%	0.1%	?	-24%	-16
COC(=O)CCCC(=O)Nc1ccc(Cl)c(Cl)c1	8%	-17	3%	1.0%	-2.0	-9%	-11
CCOc1ccc(NS(=O)(=O)c2ccc3[nH]c(=O)c(=O)[nH]c3c2)cc1	18%	1	-11%[15.4 µM]	.	-0.4	-5%	-2
Cc1ccccc1OCc1nnc(SCC(=O)O)n1-c1cccc(Cl)c1	14%	-2	4%	-2.0%	2.1	-6%	3
O=C(O)CCN1C(=O)/C(=C\c2ccc(-c3nc4ccccc4s3)o2)SC1=S	45µM*	-23	-23%	-2.9%	?	-11%[15.4 µM]	0
Cc1ccc(Cn2ccc(NC(=O)c3cc(-c4ccc(Cl)cc4)on3)n2)cc1	12%	3	38%	-7.7%	6.6	2%	-8
Cc1ccc2c(c1)N(CC(=O)NCc1ccco1)C(=O)C(C(C)C)O2 (stereo unspecified)	18%	-29	-36%[inhibitor]	-1.3%	-2.9	6%	3
O=C1/C(=C\c2ccco2)SC(=S)N1c1ccc(O)cc1	16µM*	?	-9%	-1.4%	?	-1%	0
c1cncc(-c2csc(NCc3ccco3)n2)c1	-1%	-6	?	-3.8%	-3.2	8%	-10
CCOC(=O)c1c(-c2cccc([N+](=O)[O-])c2)csc1NC(=O)CCCOc1ccccc1OC	3%	?	-2%	1.1%	2.4	-3%	?
O=C(COC(=O)c1cccc([N+](=O)[O-])c1)NNC(=O)c1cccs1	.	6	24%	-0.7%	.	4%	-2
CCOC(=O)[C@H]1[C@H]2COc3ccc(Cl)cc3[C@@H]2N2C(=O)CN(Cc3ccc(F)cc3)C(=O)[C@@]12C	.	-16	-7%	-1.4%	.	-5%	1
O=C(NNC(=S)NC(=O)c1ccccc1)c1cccc([N+](=O)[O-])c1	13%	0	-6%[15.4 µM]	-3.6%	3.2	-30%	-14
O=c1c2ccccc2nc2n1CCc1c-2[nH]c2ccccc12	16%	-21	.	3.7%	5.6&-0.3	-8%	3
COCCn1c(=NC(=O)CCS(=O)(=O)c2ccccc2)sc2cc(C)ccc21	9%	7	-6%[15.4 µM]	-25%	.	?	13
O=C(Nc1cccc(C(F)(F)F)c1)N1CCN(C(=O)Nc2cccc(C(F)(F)F)c2)CC1	2%	2	?	0.3%	-5.5	2%	-18
Cc1ccc2nc(-c3ccncc3)cc(C(=O)NCCc3ccc(F)cc3)c2c1	-29%	-11	-8%[15.4 µM]	.	0.7	-21%	3
CCOc1c2ccc(C(=O)NCCc3ccc(C)cc3)cc2nn1CC	-5%	21	.	3.5%	2.6	6%	1
COc1ccccc1CNC(=O)COC(=O)c1ccc(N2CCCC2=O)cc1	.	-1	27%	-1.5%	.	1%	-3
O=C(c1ccccc1)c1ccc2nc(Nc3ccccc3)c3nncn3c2c1	15%	0	?	3.3%	4.8	?	1
COc1ccccc1C1N=C(c2ccccc2C)NO1 (stereo unspecified)	4%	-3	14%	.	1.9	0%	-3
Cc1ccc(C(=O)NCC(=O)NCC(c2cccs2)N2CCOCC2)cc1C (stereo unspecified)	.	5	10%	-4.6%	.	6%	11
O=C(C1CCCN(S(=O)(=O)c2ccc(F)cc2)C1)N1CCCCC1 (stereo unspecified)	10%	-7	-23%	.	.	7%	-3
COC(=O)c1ccc(CN2C(=O)NC3(CCC(C)CC3)C2=O)o1 (stereo unspecified)	2%	-33	-30%	-7.2%	0.2	5%	-1
S=C(Nc1ccc(Nc2ccccc2)cc1)N1CCN(c2ncccn2)CC1	-22%	4	-3%[15.4 µM]	.	-1.7	.	-17
CC1(OC(=O)C2CCCC2)C(=O)C=C2C=C(c3ccsc3)N(CCN3CCOCC3)C=C2C1=O (stereo unspecified)	-5%&17%	-9	.	.	-6.7[11.7 µM]	.	.
Cc1cccc(C)c1NC(=O)CSc1ncnc2[nH]ncc12	.	.	-15%	-8.2%	.	12%	-20
CCOc1ccc(C2=C(C=Nc3c(C)n(C)n(-c4ccccc4)c3=O)C(c3ccc(F)cc3)c3ccccc3O2)cc1 (stereo unspecified)	23%	1	-62%[inhibitor]	0.0%	3.7	-4%	-18
Cc1nnc(NCCc2ccccc2)[nH]c1=O	6%	2	-15%	-1.0%	-3.5	13%	-6
Cc1cccc[n+]1CC(=O)Nc1cccc([N+](=O)[O-])c1	17%	7	?	-2.2%	1.1	6%	-6
COc1ccc(-c2cc(=O)oc3cc(OC(C)C(=O)NCCCn4ccnc4)ccc23)cc1 (stereo unspecified)	23%	3	?	-8.5%	-1.7	-29%	-7
COc1ccc(Cl)cc1NS(=O)(=O)c1cccc(C(=O)NCC(C)(C)N2CCOCC2)c1	.	8	11%	-0.1%	.	-19%	-4
COc1ccc(C(=O)O)cc1F	12%	5	?	-0.4%	0.1	1%	-15
O=C(Nc1ccncc1)c1cc(-c2ccccc2)nc2ccccc12	.	.	-30%[inhibitor]	-3.5%	.	.	-1
OCc1nc2ccccc2n1Cc1ccc(Cl)cc1	10%	-10	-7%[15.4 µM]	0.2%	1.7	-18%	-20
CCN(CC)c1ccc(NC(=O)OC)cc1	-21%	4	6%[15.4 µM]	-0.8%	7.5	-11%	-8
CC1CCN(S(=O)(=O)c2ccc3[nH]c(=O)[nH]c3c2)CC1	20%	2	16%	.	.	6%	1
C[C@H]1CN=C(Nc2ccccc2)N1CC1CCCCCC1	4%	23	26%	-0.4%	2.5	5%	-17
CC(C(=O)Nc1ccc(C#N)cc1)N(C)CC(=O)Nc1cccc(F)c1 (stereo unspecified)	10%	0	-3%	-2.4%	-0.2	11%	-11
Cc1cccc(NC(=O)CCCN2C(=O)C3CC=CCC3C2=O)c1 (stereo unspecified)	5%	8	-5%	-2.7%	-2.4	1%	-7
Cc1nn(Cc2ccccc2)c(C)c1C(=O)OCC(=O)c1cc(C)n(CC(F)(F)F)c1C	1%	-1	-35%[inhibitor]	8.7%	0.2	-4%	-8
The list goes on.
SMILES	Sfp inh	TRPV1 PAM	gsp agonist	ClpP mod	Menin-MLL FL inh	gsp antagonist	D2 PAM
CCCCNc1cc(F)nc(N)n1	6%	5	-24%	-0.3%	-3.1	9%	0
Cc1ccc(C(=O)C2=C(O)C(=O)N(c3ncccn3)C2c2ccc(Cl)cc2)o1 (stereo unspecified)	-16%	-17	?	-2.8%	-1.0	11%	-4
Cc1cc(C(=O)NCc2ccc(Cl)cc2)n(-c2ccccc2)n1	24%	8	1%	-3.8%	3.1	-6%	-12
COc1ccc(C)cc1S(=O)(=O)Nc1cccc(Cl)c1Cl	-2%	?	0%	?	0.6	-13%	9
O=c1[nH]n(-c2ccc(F)cc2)c2ncccc12	-3%	.	-1%	0.6%	7.8	-13%	-4
Cc1cc(C(=O)COC(=O)CNC(=O)c2ccc(F)cc2)c(C)n1Cc1ccco1	1%	-17	5%[15.4 µM]	-0.3%	1.1	-4%	5
CC(=O)N(c1ccc(N(C(C)=O)S(=O)(=O)c2ccccc2)cc1)S(=O)(=O)c1ccccc1	2%	?	4%[15.4 µM]	.	-0.6	-10%	1
Cc1nc2ccc(Nc3ccncc3)cc2s1	14%	3	8%	-1.3%	-0.5	2%	-5
CC1CCN(c2ccc(N3C(=O)C4CCCCC4C3=O)cc2[N+](=O)[O-])CC1 (stereo unspecified)	-3%	0	12%	-0.2%	6.2	1%	-12
NC(=O)C1CCN(c2oc(-c3cccs3)nc2S(=O)(=O)c2ccc(Br)cc2)CC1	.	.	15%	.	.	-7%	-9
CCc1cc(C(=O)Nc2ncccc2O)sc1C	12%	-9	28%	0.2%	2.0	-8%	3
CCCc1n[nH]c(=O)c2c1nnn2Cc1ccccc1F	5%	14	-3%[15.4 µM]	.	-4.1	13%	1
CCN=C(Nc1ccc2c(c1)OCO2)SC1CC(=O)N(c2ccccc2F)C1=O (stereo unspecified)	-13%	-24	-33%[inhibitor]	-0.3%	2.5	-6%	0
Cc1ccc(S(=O)(=O)N2CCOCC2)cc1NC(=O)c1cc([N+](=O)[O-])ccc1N1CCOCC1	.	2	11µM*	-0.4%	.	7%	-19
O=C1C=C(c2cccc(Cl)c2)C[C@@H](c2ccc(F)cc2)C1	.	6	-1%	-2.4%	.	-7%	-10
Cc1ccccc1C1C(C#N)=C2N=C(N)c3c(sc4c3CCCCC4)N2C2=C1C(=O)CC(C)(C)C2 (stereo unspecified)	4%	?	?	-1.8%	?	-19%	-16
CCN(CC(=O)Nc1cc(Cl)ccc1C)C(=O)CCOc1ccc(C)cc1	.	19	-3%	0.7%	.	-8%	-18
COc1ccc(NC(=O)NCCCCc2ccccc2)cc1OC	-4%	-8	-94%[inhibitor]	-0.5%	-5.1	-1%	-16
Cc1cccc(Nc2cc(C)c3c(O)cccc3n2)c1C	?	12	?	-14%	3.7	-5%	-9
O=C(CCCN1C(=O)c2cccnc2Oc2ccc(Cl)cc21)N1CCCCC1	9%	-13	?	-0.5%	-0.8	2%	-5
